VDR inh: blocks the human vitamin D receptor. 400,000 compounds, 0.93% hits. P11473. Potency, µM, inactives show max response, negative = inhibition, most hits filed as inhibitors. VDR-SRC2-3 peptide fluorescence polarization, 2 h; active means well fitted inhibition curve with a large enough effect; inconclusive means small, poorly fitted or top-dose-only effect, or another doubt; inactive means no such curve, though single readings can be large or run the other way; further: series mostly up to about 120 µM
Target sequence (P11473 whole entry, looked up): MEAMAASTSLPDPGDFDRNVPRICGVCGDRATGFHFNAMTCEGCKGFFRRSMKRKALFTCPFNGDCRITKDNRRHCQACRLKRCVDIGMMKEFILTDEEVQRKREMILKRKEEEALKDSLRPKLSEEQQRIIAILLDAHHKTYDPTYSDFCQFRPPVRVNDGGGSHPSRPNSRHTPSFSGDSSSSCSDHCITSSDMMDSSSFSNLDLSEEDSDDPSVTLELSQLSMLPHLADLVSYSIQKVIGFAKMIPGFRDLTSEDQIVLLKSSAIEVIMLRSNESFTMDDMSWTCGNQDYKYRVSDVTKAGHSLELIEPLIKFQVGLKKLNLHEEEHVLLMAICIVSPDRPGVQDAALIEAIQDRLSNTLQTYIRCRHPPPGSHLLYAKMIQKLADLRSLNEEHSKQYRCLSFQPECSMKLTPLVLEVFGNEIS
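Fluorescence polarization assay of small-molecule disruption of VDR binding to coregulator peptide SRC2-3. Compounds and controls pin-transferred, then read after 2 h incubation at ambient room temperature.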
Active calls of the source: *; ? = inconclusive; & = joins results of further samples; [ ] = dose if it differs, or a comment. On the % scale 0 is the no-effect control and ±100 the full control effect; potency means the concentration at half of the fitted maximal effect. Not all compounds are listed; rates above refer to the full screens.

SMILES	VDR inh
CCOC(=O)N1CCN(CC(=O)Nc2c(C(=O)OC)[nH]c3cccc(Cl)c23)CC1	-1%
Cc1cccc(NC(=O)C2CCN(c3cnccn3)CC2)c1	2%
Cc1cc(C)cc(NC(=S)NCc2ccncc2)c1	-2%
COc1cccc(CN(C(=O)COc2ccccc2[N+](=O)[O-])C2CCS(=O)(=O)C2)c1 (stereo unspecified)	-19%
Cc1ccc2oc(=O)c3cnn(CC(=O)NCCc4ccsc4)c3c2c1	-25%
Cc1nc(CCNC(=O)C2CCC(=O)N(CCc3cccc(F)c3)C2)sc1C (stereo unspecified)	-1%
CC(C)c1nc(N2CCN(C(=O)c3ccco3)CC2)c(C#N)c2c1COC(C)(C)C2	-24%
COC(=O)C1=C(C(=O)c2ccc(C)cc2)C(c2ccccc2)n2nnnc2N1 (stereo unspecified)	4%
COc1ccc2cnn(-c3ccccc3)c(=O)c2c1OC	-9%
O=C(Cn1c(=O)c2cccn2c2ccccc21)NCCc1ccccc1	8%&0%
C/C(CC(=O)Nc1ccccn1)=N\NC(=O)c1ccc2ccccc2c1	6%
CN(Cc1c(C(=O)N/N=C/c2ccc(O)cc2)nnn1-c1nonc1N)c1ccccc1	-4%
CN(c1ccc(F)cc1)S(=O)(=O)c1ccc(Cl)c(C(=O)NCc2ccco2)c1	-15%
Cc1nn(-c2ccccc2)c2c1N(CC(=O)N1CCN(c3cccc(Cl)c3)CC1)C(=O)CS2	2%
O=C(NNC(=O)c1ccccc1Cl)c1cc2cc(OC(F)(F)F)ccc2[nH]1	-1%
Cc1onc(-c2ccccc2Cl)c1C(=O)Oc1ccc(Cl)cc1Cl	4%
CCOc1ccc(CCNS(=O)(=O)c2cc3c(cc2C)NC(=O)CO3)cc1OCC	-23%
CSc1ccc(C(=O)N2CCC(CCC(=O)NCc3ccc(F)cc3)CC2)cc1	4%
Cc1ccc(-c2cc(C(F)F)nc(N3CCOCC3)n2)cc1	4%
Cc1ccnc(NC(NC(=O)C(C)C)(C(F)(F)F)C(F)(F)F)c1	?
COc1ccccc1OC(C)C(=O)Nc1ccc(S(=O)(=O)Nc2nccs2)cc1 (stereo unspecified)	0%
COc1cc2cc(Oc3ccc4ccc(=O)oc4c3)c(=O)oc2cc1OC(C)=O	-13%
CCOC(=O)c1c(C)[nH]c(C(=O)OCC(=O)Nc2cc(C)c(Cl)cc2OC)c1C	6%
CCCCNC(=O)/C(C#N)=C/c1cccnc1	-4%
CCCC(=O)NC(=S)Nc1ccc(N2CCN(C(=O)c3cccs3)CC2)cc1	12%
O=C(/C=C/c1ccc(Br)cc1)NC(=S)NNC(=O)c1ccco1	16%
COc1ccc(C(=O)NCc2ccc(S(N)(=O)=O)cc2)cc1[N+](=O)[O-]	-12%
CCOC(=O)c1ccoc1CSCC(=O)N1CCN(S(=O)(=O)c2ccc(C)cc2)CC1	-7%
O=Cc1cc2c(cc1[B-](F)(F)F)OCO2	-19%
COC(=O)C1CCN(C(=O)COC(=O)CNC(=O)c2ccc(Cl)cc2Cl)CC1	-22%

7 of the entries above in order of the VDR inh value, low to high:
SMILES	VDR inh
CCOc1ccc(CCNS(=O)(=O)c2cc3c(cc2C)NC(=O)CO3)cc1OCC	-23%
O=Cc1cc2c(cc1[B-](F)(F)F)OCO2	-19%
COc1cc2cc(Oc3ccc4ccc(=O)oc4c3)c(=O)oc2cc1OC(C)=O	-13%
COc1ccc(C(=O)NCc2ccc(S(N)(=O)=O)cc2)cc1[N+](=O)[O-]	-12%
CCCCNC(=O)/C(C#N)=C/c1cccnc1	-4%
Cc1onc(-c2ccccc2Cl)c1C(=O)Oc1ccc(Cl)cc1Cl	4%
O=C(/C=C/c1ccc(Br)cc1)NC(=S)NNC(=O)c1ccco1	16%

The listing continues:
SMILES	VDR inh
CC1CCCN(S(=O)(=O)c2cc3c4c(c2)C(C)C(=O)N4CCC3)C1 (stereo unspecified)	-7%
CCc1nc2ccccc2nc1N1CCN(S(=O)(=O)c2ccccc2)CC1	4%
CCC(=O)c1cc(F)c(N2CCN(C(=O)c3ccco3)CC2)cc1C	6%
COc1ccc2nc(NC(=O)CS(=O)(=O)c3ccc(C)cc3)sc2c1	6%
Cc1ccc(C(=O)n2nc(-c3cccnc3)nc2N)cc1	2%
O=C(Cn1cnc2cc([N+](=O)[O-])ccc2c1=O)Nc1ccc(Br)cc1	8%
Cc1ccccc1Cn1ccc(NC(=O)c2cc3ncc(Br)cn3n2)n1	-7%
CCn1nc(Cc2cccc3ccccc23)c(C#N)c1N	1%
CC1CN(C(=O)C2(C)CC2(Cl)Cl)CC(C)O1 (stereo unspecified)	-17%
c1cc2c3c(c1)c1c(n3CCNC2)CCCC1	?
CN1C(=O)C(CC(=O)O)S/C1=N\N=C\c1ccc(O)cc1O (stereo unspecified)	-20%
COc1ccc(C(=O)NCc2nnc(SCC(=O)N3CCc4ccccc43)o2)cc1OC	-14%
CC(=O)Nc1ccc(NC(=O)C2CCCN2C(=O)Nc2ccccc2[N+](=O)[O-])cc1 (stereo unspecified)	-2%
CC(C)(Cc1ccc(O)cc1)NC(=O)CC(=O)N=Nc1c(O)[nH]c2cc(Br)ccc12	5%
COc1ccc(CCNC(=O)c2cc(S(=O)(=O)N3CCCCC3)ccc2Cl)cc1	4%

Single entries from the entries so far.
Entry for Cc1ccc(C(=O)n2nc(-c3cccnc3)nc2N)cc1 under VDR inh: 2%
Entry for CCn1nc(Cc2cccc3ccccc23)c(C#N)c1N under VDR inh: 1%
Entry for CC1CCCN(S(=O)(=O)c2cc3c4c(c2)C(C)C(=O)N4CCC3)C1 (stereo unspecified) under VDR inh: -7%
Entry for CC(=O)Nc1ccc(NC(=O)C2CCCN2C(=O)Nc2ccccc2[N+](=O)[O-])cc1 (stereo unspecified) under VDR inh: -2%
Entry for COc1ccc2nc(NC(=O)CS(=O)(=O)c3ccc(C)cc3)sc2c1 under VDR inh: 6%
Entry for COc1ccc(CCNC(=O)c2cc(S(=O)(=O)N3CCCCC3)ccc2Cl)cc1 under VDR inh: 4%

The list goes on:
SMILES	VDR inh
Cc1ccc(C(=O)Nc2ccn(Cc3ccc(F)cc3)n2)o1	-6%
Cc1cccc(NC(=O)CSc2nc3c([nH]c4ccccc43)c(=O)n2-c2ccc(F)cc2)c1C	6%
CNCc1ccccc1Sc1cc(O)ccc1O	35µM*
COc1cc(NS(=O)(=O)c2ccc(N/C=C\C(=O)c3ccc(F)cc3)cc2)nc(OC)n1	-7%
Cn1c(=O)[nH]c(=O)c2c1nc(Br)n2CC(O)COCc1ccccc1 (stereo unspecified)	-1%
COc1ccc(N(C)S(=O)(=O)c2cccc(C(=O)Nc3cccc(C(=O)NC4CC4)c3)c2)cc1	2%
COc1ccc(S(=O)(=O)N2CCC(C(=O)NCc3ccccn3)CC2)cc1OC	12%
COCCCN(C(=O)c1ccc(-c2ccc(C(C)=O)cc2)o1)c1c(N)n(CC(C)C)c(=O)[nH]c1=O	9%
O=C(NCc1ccco1)C1CCCN1C(=O)Nc1ccccc1[N+](=O)[O-] (stereo unspecified)	4%
CCC(C)Nc1nc(Cl)nc(NCCOc2ccccc2)n1 (stereo unspecified)	-4%
O=S1(=O)N=C(Nc2cccc(C(F)(F)F)c2)c2ccccc21	6%
CC1=C(C(=O)N2CCOCC2)C(c2c(C)cc(C)cc2C)NC(=S)N1 (stereo unspecified)	-12%
COc1ccccc1NC(=O)CSc1nnc(-c2ccc(C)cc2)o1	1%
COCCN(Cc1cc2cc(C)cc(C)c2nc1Cl)C(=O)Nc1ccccc1	-19%
COc1ccc(N2CCN(S(=O)(=O)CCNC(=O)COc3ccc(Cl)cc3)CC2)cc1	-8%
CC(=O)Nc1ccc2nc(NC(=O)COc3ccc(C)cc3)sc2c1	-11%
O=C(Nc1cccc(-n2cnnn2)c1)c1cnccc1Cl	4%
CCNC(=S)N1CCN(CC(=O)Nc2ccc(OC)cc2)CC1	-7%
CCCC(C)c1nnc(NC(=O)CCS(=O)(=O)Cc2ccccc2)s1 (stereo unspecified)	?
Cc1cc(C)n(-c2nc3c(c(=O)n(C)c(=O)n3C)n2C)n1	-19%
COc1ccc(Cn2c(=O)[nH]c3cc(C(=O)N4CCN(c5ccccn5)CC4)ccc3c2=O)cc1	-12%
COc1ccc(C2=NOC(Cn3nc(C(=O)NCc4cccc(C(F)(F)F)c4)cc3-c3ccccc3)C2)cc1 (stereo unspecified)	5%
Cc1oc(-c2ccccc2F)nc1CS(=O)(=O)CC(=O)N1CCc2ccccc21	-13%
Cc1ccc2c(c1)c1c(c(=O)n(-c3ccccc3C)c(=O)n1CC(=O)NCC1CCCO1)n2C (stereo unspecified)	-6%&9%
COc1cccc(OC)c1C(=O)NC(=S)Nc1ccc(N2CCOCC2)c(Cl)c1	8%
CC(C)c1ccc(NS(=O)(=O)c2ccc3[nH]cc(C(=O)NCCc4ccccc4)c(=O)c3c2)cc1	-17%
Cn1c(=NC(=O)C2CC2)sc2cc(F)cc(F)c21	1%
O=C(NCCc1ccccc1Cl)C1CCN(S(=O)(=O)c2cccs2)CC1	3%
CNS(=O)(=O)c1cc(Nc2ncnc3sccc23)ccc1C	8%
CN(C(=O)c1ccoc1)c1ccc2ccccc2c1	2%
COc1ccc(CNC(=O)CCc2c(C)c3cc4c(C)c(C)oc4cc3oc2=O)cc1	5%
Oc1c(I)cc(Cl)c2cccnc12	?
Cc1c(-c2nn(C)c(=O)c3ccccc23)oc2ccc(F)cc2c1=O	2%
O=S(=O)(O/N=C1\CCCc2ccccc21)c1ccc(Cl)cc1	-7%
CCOc1ccc2ccccc2c1C1NC(=S)N(C)C(C)=C1C(=O)OC (stereo unspecified)	-17%
Cc1[nH]c2ccccc2c1C(=O)CSC(=S)N1CCN(C)CC1	12%
Cc1ccc(NC(=O)C2CCN(c3nc4ccccc4nc3C(F)(F)F)CC2)cc1C	8%
CN(C)c1ccc(C(CNC(=O)c2ccccc2)N2CCc3ccccc32)cc1 (stereo unspecified)	15%
COc1ccc(C(=O)NN2CCOCC2)cc1	1%
CC(C)(C)OC(=O)CNC(=O)c1[nH]cnc1C(=O)N[C@@H](Cc1ccccc1)C(=O)OC(C)(C)C	-3%
CN1CCc2c(sc3c2c(=O)n(-c2ccccc2)c2nnc(SCc4ccccc4)n32)C1	-26%
COc1ccc(-c2nn3c(=O)cc(CN4CCN(C(=O)Nc5cc(C)ccc5C)CC4)nc3s2)cc1	-1%
CCOc1ccccc1NC(=O)CCc1nc(-c2cccc(C)c2)no1	13%
COc1ccc(CNC(=O)CN(Cc2ccco2)C(=O)CNS(=O)(=O)c2ccccc2)cc1	4%
Cc1cccc(-n2c(=O)c3c(c4cc(C)ccc4n3C)n(Cc3ccccc3F)c2=O)c1	4%
Cc1cc(C)cc(N2C(=O)C3CC=CCC3C2=O)c1 (stereo unspecified)	1%
Cc1ccc(-n2nc3c(c2NC(=O)C(C)(C)C)CS(=O)(=O)C3)cc1	-16%
CCn1cc(C(=O)NCc2cccc(C(F)(F)F)c2)c(=O)c2ccc(C)nc21	-3%
O=C(CCn1c(=O)[nH]c2ccsc2c1=O)N1CC(=O)N(CCc2ccccc2)C(=O)C1	3%
COCCn1c(C)cc(O)c(C(c2ccccc2)N2CCN(c3ccccc3)CC2)c1=O (stereo unspecified)	2%
CCOC(=O)c1c(C)nc2sc3c(=O)n(-c4ccc(C(C)=O)cc4)nnc3c2c1-c1ccc(Cl)cc1	-5%
COCCN(C(=O)CCN1C(=O)C2CC=CCC2C1=O)c1c(N)n(CC(C)C)c(=O)[nH]c1=O (stereo unspecified)	-10%
Cc1cccc(NC(=O)Cn2c(=O)ccc3cc(S(=O)(=O)N4CCCC4)ccc32)c1C	1%
CCOc1ccc(C2Sc3ccccc3NC3=C2C(=O)OC3)cc1 (stereo unspecified)	11%
COc1ccc(NC(=O)c2c(Cl)n(C)c3ccccc23)cc1	17%
CCOc1ccccc1C(=O)Oc1ccc2ccc(=O)oc2c1	-3%
CC(C)=CCOc1ccc2c(C)c(CC(=O)N3C[C@H]4C[C@@H](C3)c3cccc(=O)n3C4)c(=O)oc2c1C	-13%
COc1cc(C)c(Br)cc1S(=O)(=O)NCc1ccncc1	-1%
O=P(O)(c1ccc(Cl)cc1)c1ccc(Cl)cc1	6%
O=C(Nc1ccc2c(c1)oc1ccccc12)c1ccc(Br)o1	7%

(listing goes on)
SMILES	VDR inh
O=C(CN1C(=O)NC(c2ccccc2)(c2ccccc2)C1=O)NC1CCCCC1	1%
Cc1nn(C(C)C(=O)N/N=C/c2ccc(N(C)C)cc2)c(C)c1[N+](=O)[O-] (stereo unspecified)	-4%
CCOc1ccc(NC(=O)CN(C)CC(=O)NC(C)c2ccccc2)cc1OCC (stereo unspecified)	-23%
Cc1ccc(Cn2c(NCCCn3ccnc3)nc3c2c(=O)n(C)c(=O)n3C)cc1	8%
COc1ccc(Cl)cc1N(CC(=O)NCCSCc1ccccc1)S(C)(=O)=O	-11%
Cc1ccc(/C(C#N)=C\c2ccc(N3CCOCC3)o2)cc1	?
CNC(=O)c1ccc(-c2ccc(F)cc2)s1	32%[activator]
COc1ccc(Cc2nnc(SC)[nH]c2=O)cc1	8%
Cc1ccc(OCC(=O)Nc2ccc3nc(SCC(=O)N4CCCC4)sc3c2)cc1C	21%
CCN(C(=O)CCCCC(=O)N(CC)c1ccccc1)c1ccccc1	-2%
N#Cc1c(NC(=O)CSc2nnc(-c3ccccc3O)n2-c2ccccc2)sc2c1CCCC2	-5%
C/C(=N\NC(=O)CNC(=O)c1cccnc1)c1cccc(O)c1	0%
COc1ccc(OC)c(C2SCCN2S(=O)(=O)c2cccc(C(F)(F)F)c2)c1 (stereo unspecified)	-6%
CCc1ccccc1NC(=O)c1nnn(CC(=O)Nc2c(C)cc(C)cc2C)c1N	6%

Source: PubChem
